Calb biofilm kill – clotrimazole potentiators killing C. albicans biofilm, primary screen, 4-compound mixtures; C. albicans biofilm persisters + clotrimazole, fluorescence viability; primary screen in compound mixtures of four per well; inhibition, % at 7.6 µM; AID 1242, 2008; actives 0.02% (n = 120,000);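 active means inhibition above 30.3% in the primary screen of four-compound pools, then above 30% when the compound was retested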;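 further: compounds exposed to preformed 24 h biofilms for 48 h; the number belongs to the whole pool; some results filed as inactive read as strong as hits; inactives centre near 12; 0% = biofilm with clotrimazole alone and 100% = kill control; retested singly at about 60 µM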
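Test system: C. albicans CAF4-2 wild-type biofilms; buffer or medium: RPMI/MOPS medium, pH 7.0; schedule: 24 h biofilm formation, then 48 h compound exposure, 37 °C; detection: Alamar Blue fluorescence; measure: percent inhibition of biofilm viability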
The depositor's hits bear a star. A portion of the library (hit frequency here may not be typical).

smiles	Calb biofilm kill
CCOC(=O)Cc1csc(NC(=O)CSc2nnc(-c3ccncc3)o2)n1	14
COc1ccc(COCC(O)CN(Cc2ccco2)Cc2ccccc2O)cc1 (centres undefined)	19
O=C(NCCN1CCOCC1)c1ccc(N2CCCC2)c([N+](=O)[O-])c1	12
CCOC(=O)c1cnc(-c2ccccc2)nc1N1CCOCC1	10
O=C(O)c1ccc(/C=N/Nc2ccc(S(=O)(=O)N3CCCC3)cc2[N+](=O)[O-])cc1	25
O=C(CC1SC(=NCc2ccccc2)NC1=O)Nc1ccccc1 (centres undefined)	-5
Cc1sc2nc(CSc3ncn[nH]3)[nH]c(=O)c2c1C	14
O=C(Nc1ccc(C(=O)O)cc1)/C(=C\c1ccco1)NC(=O)c1ccccc1	-8
Cc1cccc(NC(=S)N(C)C2CCCCC2)c1	18
Cc1cccc(COCC(Cc2ccccc2)N2CCN(C(=O)c3cc(Cl)cc(Cl)c3)CCC2=O)c1 (centres undefined)	14
CC1CCN(C(=O)COC(=O)c2ccccc2NC(=O)c2ccco2)CC1	12
COc1ccccc1N(CC(=O)NCc1ccc(F)cc1)C(=O)CCC(=O)Nc1ccccn1	22
O=C(NC(=S)Nc1ccc(Br)cn1)c1cccnc1	19
Cn1cc(CC(=O)NCCCN2CCOCC2)c2ccccc21	16
CC1CC(C)CN(c2nc(NCc3ccco3)nc(N)c2[N+](=O)[O-])C1 (centres undefined)	11
CCN(CC)C(=O)c1cc2c(=O)c3cc(F)ccc3oc2nc1C	8
COC(=O)c1sccc1NC(=O)c1ccc(C)s1	10
COc1ccc2c(COC(=O)CC3Sc4ccccc4NC3=O)cc(=O)oc2c1 (centres undefined)	-10
Cc1nc(C(=O)NCCC(C)C)sc1C1(C)CC(c2cccc([N+](=O)[O-])c2)=NO1 (centres undefined)	18
CSc1ccccc1NC(=O)Nc1cccc(Cl)c1C	18

A different layout for part of the listing above.
CCN(CC)C(=O)c1cc2c(=O)c3cc(F)ccc3oc2nc1C
  Calb biofilm kill: 8
COC(=O)c1sccc1NC(=O)c1ccc(C)s1
  Calb biofilm kill: 10
COc1ccc2c(COC(=O)CC3Sc4ccccc4NC3=O)cc(=O)oc2c1 (centres undefined)
  Calb biofilm kill: -10
Cc1nc(C(=O)NCCC(C)C)sc1C1(C)CC(c2cccc([N+](=O)[O-])c2)=NO1 (centres undefined)
  Calb biofilm kill: 18

(continued)
smiles	Calb biofilm kill
COc1cc(S(N)(=O)=O)c(OC)cc1N	16
Oc1[nH]c2ccccc2c1C1=NCCCCC1	-4
O=C(NN1C(=O)/C(=C/c2cccs2)SC1=S)c1ccccc1	11
NC(=O)c1ccc(C(F)(F)F)cn1	16
CCCCNC(=O)CSc1nc2cc3c(cc2c(=O)n1Cc1ccco1)OCO3	13
O=c1[nH]nc(SCc2cc(Cl)ccc2Cl)c(=O)[nH]1	22
CC(=O)NS(=O)(=O)c1ccc2sc(C)nc2c1	21
CCOc1ccccc1N1CCN(C(=O)COc2ccc3c(C)cc(=O)oc3c2)CC1	20
Cc1ccc2nc(NS(C)(=O)=O)sc2c1	7
COCCN1C(=O)N[C@@H](CCc2ccccc2)C(C(C)=O)=C1C	1
CCOC(=O)N1CCN(C(=O)CSc2ccc(-c3ccc(OC)cc3)nn2)CC1	10
CCN(CC)S(=O)(=O)c1cc(C(=O)O)ccc1OC	13
CC(C)(C)c1ccc(-c2noc(CCC(=O)NCc3ccco3)n2)cc1	-18
O=[N+]([O-])c1cc2cccnc2c2ncccc12	8
c1ccc(-c2nnc(C(c3ccccc3)c3ccccc3)o2)cc1	10
N#Cc1cc2c(nc1SCc1ccc(Cl)cc1)CCCC2	14
CC(=O)Nc1ccc(SCC(=O)Nc2ccccc2-c2ccccc2)cc1	15
COc1ccc(/C=C(/NC(=O)c2ccccc2)C(=O)N/N=C/c2sccc2C)cc1	15
COc1ccc(CCNC(=O)/C=C/C(=O)O)cc1OC	15
COc1ccc(C2CC(c3ccc(OC)c(OC)c3)=NN2S(C)(=O)=O)cc1 (centres undefined)	15
C[C@@H](C(=O)N1CCNCC1)n1cc(CCC(=O)O)nn1	11
Cc1cccc(-n2c(SCC(=O)Nc3ncc(Cl)cc3Cl)nc3ccccc32)c1	10
COc1ccc(C(=O)[C@H]2[C@H]3C(=O)N(c4ccccc4)C(=O)[C@H]3C3C=CC=NN32)cc1 (some centres undefined)	10
O=c1c2ccccc2nc(/C=C/c2cccc([N+](=O)[O-])c2)n1CCO	20
Cc1cc2cc(CNC(=S)NCc3ccccc3)ccc2n1C	20
CCOc1ccc(C2C(C#N)=C(N)Oc3cc(C)[nH]c(=O)c32)cc1OC (centres undefined)	13
COc1ccccc1OCCSc1nc2ccccc2n1CCO	5
C=CCNC(=S)N1CCN(CCN=CC2=C(O)CC(c3ccc(Cl)cc3)CC2=O)CC1 (centres undefined)	15
Cc1noc(C)c1CSc1nnc(-c2ccccc2)o1	-2
Cc1cccc(OCc2nnc(SCC(=O)N3c4ccccc4CC3C)n2C)c1C (centres undefined)	13
O=c1cc(CN2CCN(c3ccc(O)cc3)CC2)nc2scc(-c3ccccc3)n12	16
CNc1n[nH]c(=S)s1	26
S=c1[nH]nc(-c2ccccc2)n1/N=C/c1c[nH]c2ccccc12	3
C/C(=N/NC(=O)c1ccn(C)n1)c1ccncc1	16
O=C(CCN1C(=O)c2ccccc2C1=O)Nc1sc2c(c1C(=O)NCC1CCCO1)CCC2 (centres undefined)	12
CN(C)c1ccc(C(=O)NC2CCCc3ccccc32)cc1 (centres undefined)	6
COC(=O)c1ccc2c(=O)n(CCN3CCOCC3)c(SCC(=O)c3ccccc3)nc2c1	3
C=CCN1C(=O)C(CCCC)NC1=S (centres undefined)	17
COCCOC(=O)c1ccc(NC(=O)COc2ccc([N+](=O)[O-])cc2)cc1	16
CCOc1ccccc1Nc1nc(-c2sc(C)nc2C)cs1	24
COc1cc(OC)c(C(=O)/C=C/c2ccccc2)c(O)c1O	22
Cc1ccccc1NCC(=O)N/N=C\C=C\c1cccc([N+](=O)[O-])c1	18
O=C(Nc1nc2c(s1)CCCC2)c1cc(-c2ccncc2)nc2ccccc12	17
CSc1ncc(CN2CCc3c([nH]c4ccccc34)C2c2cccc(O)c2)cn1 (centres undefined)	0
COc1cc(-c2cc(-c3nnco3)c3ccccc3n2)cc(OC)c1OC	12
O=C(CSC1=Nc2ccccc2C2CC=NN12)Nc1ccc2c(c1)OCO2 (centres undefined)	16
CC(C)CC(NC(=O)C(NC(=O)C(Cc1ccc(OCc2ccccc2)cc1)NC(=O)OC(C)(C)C)C(C)C)C(N)=O (centres undefined)	19
CC(C)Nc1nc(NC(C)(C)C)nc(Oc2ccc(=O)n(C)n2)n1	9
CCCOc1ccc(-c2nc[nH]c2[N+](=O)[O-])cc1	18
O=C(O)/C=C/C(=O)NCc1cn(-c2ccccc2)nc1-c1cccc(Br)c1	13

Going on with the list.
smiles	Calb biofilm kill
Cc1cc(C)c(C)c(OCCOCCNCc2ccccc2)c1	-11
COc1cccc(OC)c1C(=O)NC(=S)Nc1ccc(S(=O)(=O)Nc2nccs2)cc1	27
COc1ccc(C(=O)N/C(=C\c2ccco2)C(=O)NCc2cccnc2)cc1	15
CCCN=C1CC(C)(C)CC(=O)/C1=C(/O)CCCN1C(=O)c2ccccc2C1=O	-3
O=C(NCc1ccccc1Cl)C1CCC(CNc2c(N3CCOCC3)c(=O)c2=O)CC1 (centres undefined)	22
CCOc1ccc2cc(C3CC(c4ccco4)=NN3S(C)(=O)=O)c(Cl)nc2c1 (centres undefined)	13
CCc1c(C)sc(NC(=S)N2CC(C)OC(C)C2)c1C(=O)OC (centres undefined)	9
CCOC(=O)N/N=C\C=C\c1ccco1	18
Cc1ccc(-c2cnc3c(Cl)c(C)nn3c2)cc1	14
O=C(CSc1cccc[n+]1[O-])Nc1cc([N+](=O)[O-])ccc1Cl	10
CCCn1nnc(NC(=O)Cc2ccc(Cl)cc2)n1	18
COc1ccccc1/C=C/C=N/NC(=O)c1ccc2nc[nH]c2c1	9

In the list so far, 15 contain an aryl thioether with sulfur outside any ring.
smiles	Calb biofilm kill
CCOC(=O)Cc1csc(NC(=O)CSc2nnc(-c3ccncc3)o2)n1	14
Cc1sc2nc(CSc3ncn[nH]3)[nH]c(=O)c2c1C	14
CSc1ccccc1NC(=O)Nc1cccc(Cl)c1C	18
CCCCNC(=O)CSc1nc2cc3c(cc2c(=O)n1Cc1ccco1)OCO3	13
O=c1[nH]nc(SCc2cc(Cl)ccc2Cl)c(=O)[nH]1	22
CCOC(=O)N1CCN(C(=O)CSc2ccc(-c3ccc(OC)cc3)nn2)CC1	10
N#Cc1cc2c(nc1SCc1ccc(Cl)cc1)CCCC2	14
CC(=O)Nc1ccc(SCC(=O)Nc2ccccc2-c2ccccc2)cc1	15
Cc1cccc(-n2c(SCC(=O)Nc3ncc(Cl)cc3Cl)nc3ccccc32)c1	10
COc1ccccc1OCCSc1nc2ccccc2n1CCO	5
Cc1noc(C)c1CSc1nnc(-c2ccccc2)o1	-2
Cc1cccc(OCc2nnc(SCC(=O)N3c4ccccc4CC3C)n2C)c1C (centres undefined)	13
COC(=O)c1ccc2c(=O)n(CCN3CCOCC3)c(SCC(=O)c3ccccc3)nc2c1	3
CSc1ncc(CN2CCc3c([nH]c4ccccc34)C2c2cccc(O)c2)cn1 (centres undefined)	0
O=C(CSc1cccc[n+]1[O-])Nc1cc([N+](=O)[O-])ccc1Cl	10
